Six1-Eya2 blk: qHTS Assay for Inhibitors of the Six1/Eya2 Interaction; Homeobox protein SIX1 (Homo sapiens) + Protein phosphatase EYA2 (Homo sapiens), …; AlphaScreen GST-Six1/His-Eya2 binding, biochemical; active compounds read low; control for the full effect not named in the record; activity change, % (concentration not given with the values); 360,000 compounds, 0.56% hits; AID 651725, 2012; in the data active = activity change below about -65%; inconclusive = about -30% to -65%; inactive = above about -30%; also: % is scaled to controls: 0 for no effect and ±100 for the full control effect
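GST-Six1 + His-Eya2 (5X stock: 250/500 nM); Tris pH 8.0, 300 mM NaCl, 0.05% BSA, 0.02% Tween 20; GSH donor/Ni acceptor beads; 1 h 37 °C dark; AlphaScreen readout.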
D2 PAM: Beta-Arrestin HTS for Positive Allosteric Modulators of the Human D2 Dopamine Receptor: Potentiators. D(2) dopamine receptor (Homo sapiens), P14416. DiscoveRx D2 beta-arrestin cells, luminescence, 90 min; 100% = 57 uM dopamine signal. potentiation, % (concentration not given with the values). 360,000 compounds, 0.23% hits; active = potentiation of 50% or more; inconclusive = 30% to 50%; inactive = 30% or less;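 also: tested on top of an EC20 dose of dopamine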
Target sequence (P14416 whole entry, looked up): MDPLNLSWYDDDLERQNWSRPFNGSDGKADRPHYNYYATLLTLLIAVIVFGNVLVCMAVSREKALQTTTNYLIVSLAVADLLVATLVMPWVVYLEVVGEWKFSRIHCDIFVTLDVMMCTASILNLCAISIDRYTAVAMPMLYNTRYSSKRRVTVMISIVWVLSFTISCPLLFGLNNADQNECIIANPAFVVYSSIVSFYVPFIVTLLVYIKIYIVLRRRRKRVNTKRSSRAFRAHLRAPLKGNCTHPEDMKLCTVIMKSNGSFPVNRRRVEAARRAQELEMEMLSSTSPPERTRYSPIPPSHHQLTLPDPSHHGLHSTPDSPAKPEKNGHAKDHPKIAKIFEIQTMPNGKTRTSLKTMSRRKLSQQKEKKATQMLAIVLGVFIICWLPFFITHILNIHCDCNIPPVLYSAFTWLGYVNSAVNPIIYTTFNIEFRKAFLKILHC
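PathHunter beta-arrestin assay in DiscoveRx D2 cells. Compounds were added with an EC20 of dopamine (50 nM final) for 90 min at 37 deg C. Luminescence was read 1 h after detection reagent, with 57 uM dopamine as the EC100 control.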
CtBP-E1A inh: qHTS Assay for Inhibitors of the CtBP/E1A Interaction. CtBP / adenovirus E1A interaction (AlphaScreen). AlphaScreen GST-E1A/His-CtBP binding, 1536-well; active compounds read low; control for the full effect not named in the record. activity change, % (concentration not given with the values). 340,000 compounds, 0.49% hits. AID 651724, 2012; in the data active means activity change below about -65%; inconclusive means about -30% to -65%; inactive means above about -30%; also: % is scaled to controls: 0 for no effect and ±100 for the full control effect
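AlphaScreen with 125 nM GST-E1A and 125 nM His-CtBP (5X stocks) in Tris pH 8.0, 300 mM NaCl, BSA, Tween 20, TCEP. Compounds preincubated 2 h at 37 deg C, then glutathione donor/nickel acceptor beads added for 1 h at 37 deg C in dark.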
Sfp inh: qHTS Assay for Inhibitors of Bacillus subtilis Sfp phosphopantetheinyl transferase (PPTase). 4'-phosphopantetheinyl transferase ffp (Bacillus subtilis), Q9F4F7. Biochemical Sfp PPTase activity, qHTS. Potency, µM, for inactives: max response, negative = inhibition, hits mostly inhibitors. 310,000 compounds, 3.5% hits; active = well fitted inhibition curve with a large enough effect; inconclusive = small, poorly fitted or top-dose-only effect, or another doubt; inactive = no such curve, though single readings can be large or run the other way;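 also: the enzyme is Sfp with the accession as filed and its product quenches rhodamine fluorescence; potency is read from the fitted curve at half-maximal effect; 0% = enzyme reaction without inhibitor and -100% = no enzyme wells; top concentration of the series not given in the record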
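Sfp 15 nM + cpd, 15 min RT; start w/ rhodamine-CoA 5 uM, BHQ-2-YbbR 12.5 uM (final); 50 mM Hepes pH 7.6, 10 mM MgCl2, 0.01% NP-40, 0.01% BSA; read 525/598 nm at 0 and 30 min.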
TRPV1 potentiator: HTS Assay for Compounds that Act as Potentiators of the Vanilloid Receptor 1; Transient receptor potential cation channel subfamily V member 1 (Homo sapiens), Q8NER1; AID 540277, 2011; TRPV1-expressing cells, Fluo-8 calcium influx, capsaicin EC20 potentiation; host cell line not named in the record; control for the full effect not named in the record; 320,000 compounds, 0.02% hits; potentiation, % at 8.33 µM; active means potentiation above 80%; inconclusive means 30% to 80%; inactive means below 30%; also: 0% is about no effect
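Cells expressing TRPV1 were dye-loaded with Fluo-8 and read kinetically: 10 s baseline, 3 min after compound (agonist portion), then 2 min after EC20 capsaicin (allosteric enhancer portion). Calcium-bound dye fluorescence at 480/520 nm.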
PINK1 expr mod: A Quantitative High throughput Screen to Identify Chemical Modulators of PINK1 Expression; Potency, µM (series often up to 76.6 µM), inactives show at the highest dose activation (PINK1 increase), hits mostly activators; PINK1 immunofluorescence, high-content cytometry, 24 h; AID 624263, 2012; 410,000 compounds, 0.2% hits; active = well fitted activation curve with a large enough effect; inconclusive = small, poorly fitted or top-dose-only effect; inactive = flat fitted curve, though single readings scatter; cell line not stated here;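 also: potency is read from the fitted curve at half-maximal effect; % of control where 0% means no effect; nearly all actives have a fitted effect of over 65% in size; a mitochondrial uncoupler was the plate control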
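PINK1 protein, normally rapidly degraded, was detected by immunofluorescence after 24 hour compound treatment of a stable cell line. Titration data (5 concentrations) came from laser-scanning cytometry, with CCCP-treated wells as controls.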
D2 agonist: Beta-Arrestin HTS for Positive Allosteric Modulators of the Human D2 Dopamine Receptor: Agonists. DiscoveRx PathHunter D2 beta-arrestin, luminescence, 90 min; 100% = 57 uM dopamine signal. D(2) dopamine receptor (Homo sapiens), P14416. 360,000 compounds, 0.084% hits. activation, % (concentration not given with the values); in the data active = activation above about 40%; inconclusive = about 15% to 40%; inactive = below about 15%; also: the text of the record calls up to 30% inactive
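DiscoveRx PathHunter D2 beta-arrestin cells (2,100/well) attached overnight, then compound-stimulated 90 min at 37 C in HBSS/10 mM HEPES/0.1% Tween-20 buffer; beta-galactosidase complementation read by luminescence after 1 h at ambient temperature. Dopamine 57 uM final (EC100) as control.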
* marks the source's active call; other numbers are inactive results; ? = inconclusive; nt = no result given; & = joins results of further samples; [ ] = remark or other dose.

SMILES | Sfp inh | D2 PAM | CtBP-E1A inh | PINK1 expr mod | D2 agonist | TRPV1 potentiator | Six1-Eya2 blk
COC(=O)c1ccc(CNC(=O)CSC2=NCCS2)cc1 | 6.7% | -3.3 | nt | 4.1% | 9.3 | 0.2 | 0.9
C[C@H](CO)N1C[C@H](C)[C@@H](CN(C)S(=O)(=O)c2ccccc2)Oc2ccc(NC(=O)NC3CCCCC3)cc2C1=O | nt | nt | -3.4 | 0.5% | 1.3 | nt | -7.5
Brc1cc(Br)c2nc(-c3cccs3)ccc2c1 | 3.4% | 1.6 | 10.4 | 1.1% | -1.1 | 0.0 | 12.2
CC(C)N1CCC(N2CCN(Cc3ccc4nonc4c3)CC2CCO)CC1 (stereo unspecified) | 6.6% | -2.1 | -0.5 | 0.6% | 0.0 | -21.0 | 4.2
NCCNC(=O)c1c(NC(=O)c2ccccc2)sc2c1CCCC2 | 4.7% | -5.1 | -18.3 | -0.6% | 2.3 | 2.5 | -12.7
c1ccc(-c2nc(NCc3ccco3)c3ccccc3n2)nc1 | 0.5% | -25.5 | -81.1* | 0.7% | -8.5 | -2.4 | -80.6*
O=[N+]([O-])c1ccccc1N/N=C/c1c[nH]c2ccccc12 | 6.9% | -33.1 | -78.1* | 0.2% | -8.0 | -5.7 | -84.3*
COc1cc(OC)cc(C(=O)NC(=S)Nc2ccc(Cl)c(C(=O)O)c2)c1 | -24.5% | -12.6 | -8.7 | -0.2% | -5.0 | 0.2 | -3.1
Cc1ccc(-n2c(SCC(N)=O)nc3c([nH]c4ccccc43)c2=O)cc1 | 17.2% | -7.5 | -1.1 | 1.1%&-3.6% | -5.5 | -2.9 | -0.1
O=C(CCC1CCCC1)NNC(=O)COc1ccc(Br)cc1 | nt | 0.3 | nt | 0.9% | -2.8 | nt | -6.8
COCCNC(=O)Cn1cnc2sc(C)c(S(=O)(=O)N3CCC(C)CC3)c2c1=O | -5.5% | -12.0 | 1.6 | 0.9% | -3.3 | -4.3 | -1.3
CC(C)C(=O)Nc1nnc(S(=O)(=O)N2c3ccccc3CC2C)s1 (stereo unspecified) | 10.4% | -3.5 | -0.3 | 1.5%&0.6% | -0.4 | 28.9 | -0.2
Cc1ccc(NC(=O)N2CCC(NC(=O)C(C)(C)C)CC2)cc1 | 7.7% | -13.0 | -0.9 | 4.4% | -2.9 | -6.7 | -0.1
O=C(CN1CC(=O)Nc2ccccc21)NCCc1ccc(Cl)cc1Cl | 7.9% | -8.5 | -0.4 | 3.8% | -1.2 | -0.1 | -3.3
O=C1CC(N2CCC(c3nc4ccccc4[nH]3)CC2)C(=O)N1Cc1ccccc1 (stereo unspecified) | -8.8% | -21.6 | 7.2 | 3.2%[38.3 µM] | -0.2 | 10.6 | -0.8
O=C(C1=C[C@H](C2CC2)C[C@H](OCc2ccc(CO)cc2)O1)N1CCOCC1 | 4.3% | -9.8 | -14.3 | -0.4% | -2.4 | 14.9 | -0.2
CC(=O)N1CCN=C1SCc1c(F)cccc1Cl | 12.5% | -8.2 | -14.5 | 4.3% | -2.8 | 5.1 | 9.5
COc1ccc(-c2[nH]c(-c3ccc(F)cc3)nc2SCC(=O)NC2CCCC2)cc1 | -9.8% | -7.1 | -29.8 | ? | 0.6 | -27.1 | -20.8
O=C(O)CC1S/C(=N/N=C/c2ccc(-c3ccc(Cl)cc3[N+](=O)[O-])o2)NC1=O (stereo unspecified) | 39.8µM* | 1.8 | -3.6 | -2.2% | -0.9 | 4.5 | -9.9
CC1=CC(C)(C)N(C(=O)CN2C(=O)CCC2=O)c2ccc(C)cc21 | 5.0% | -1.7 | 1.7 | 1.2% | -2.2 | 2.4 | -0.2
CN(CC(=O)Nc1ccc2c(c1)OCO2)S(=O)(=O)c1cccs1 | 11.2% | -0.3 | 4.2 | -2.1% | 2.9 | -6.8 | -1.9
COc1cc(OC)c(OC)cc1/C=N/NC(=O)CC1C(=O)NN=C1C (stereo unspecified) | 14.2% | -19.8 | 3.6 | -0.2% | -1.0 | -10.2 | 0.0
COC1CCN(C(=O)c2ccc3oc(C(C)C)nc3c2)CC1 | 14.3% | -2.4 | 4.7 | 1.0% | -0.2 | -0.1 | 2.4
COc1ccc(C(=O)COC(=O)CCc2ccccc2)cc1 | 1.9% | -1.4 | 19.7 | 1.8% | -0.7 | -7.0 | 16.1
CCn1cnc2cc(NC(=O)COc3ccc(C)cc3)ccc21 | nt | 0.1 | -5.5 | 24.5% | -4.0 | nt | 14.8
O=C(C1CCCN(S(=O)(=O)c2ccccc2[N+](=O)[O-])C1)N1CCCC1 (stereo unspecified) | 1.6% | -2.0 | 10.4 | -1.5% | -2.0 | 27.2 | -2.0
NC(=O)C1CCN(C(=O)Cn2cccc2C(=O)c2ccccc2)CC1 | 10.6% | 1.7 | 3.0 | -1.1% | -4.2 | 7.2 | 3.5
Cc1cc(C(=O)CSc2nnnn2-c2ccc(O)cc2)c(C)n1Cc1ccc2c(c1)OCO2 | 5.0% | 11.0 | -18.9 | -0.3% | 3.9 | -6.3 | -23.2
CC(C)[C@H](COC=O)NC(=O)[C@H]1O[C@@H](n2ccc(N)nc2=O)[C@H](O)[C@@H]1O | nt | -4.7 | 0.5 | -0.6% | -4.4 | nt | 12.2
O=C(NN=C1CCN(Cc2ccccc2)CC1)c1cc(Br)ccc1O | 27.5% | -7.6 | nt | 1.4% | -6.9 | 28.3 | -4.6
c1ccc2c(c1)OCC(c1nn3c(Cn4nnc5ccccc54)nnc3s1)O2 (stereo unspecified) | 2.51µM* | -6.3 | -16.4 | -1.8%[38.3 µM] | 1.6 | 14.0 | -6.6
COc1cc(C(=O)Nc2nc(-c3ccc(C)cc3)cs2)ccc1OCC(=O)N1CCOCC1 | 1.9% | -12.7 | nt | 3.1% | -1.5 | ? | -5.0
CNC(=O)CSc1nnc(-c2ccco2)n1-c1ccccc1OC | 9.6% | 2.3 | -1.7 | -0.8%[38.3 µM] | -0.4 | -2.6 | -1.7
CCCNc1nc(OC(C(F)(F)F)C(F)(F)F)nc(OC(C(F)(F)F)C(F)(F)F)n1 | 26.6% | -1.9 | -0.3 | 4.2%[38.3 µM] | -0.3 | -7.0 | 4.9
Cc1ccc2c(ccc[n+]2CC(=O)c2ccccc2)c1 | 9.4% | -10.9 | -1.5 | 2.8% | -3.7 | 8.1 | 8.9
Cc1ccc(C(=O)NN2C(=O)C3C(C2=O)C2C=CC3C23CC3)cc1 (stereo unspecified) | 12.8% | -10.9 | -5.0 | 1.9% | -5.0 | 3.3 | 2.0

Copied from the list:
For CtBP-E1A inh, CNC(=O)CSc1nnc(-c2ccco2)n1-c1ccccc1OC shows -1.7
For CtBP-E1A inh, Cc1ccc(NC(=O)N2CCC(NC(=O)C(C)(C)C)CC2)cc1 shows -0.9

The listing continues:
SMILES | Sfp inh | D2 PAM | CtBP-E1A inh | PINK1 expr mod | D2 agonist | TRPV1 potentiator | Six1-Eya2 blk
COC(=O)[C@@]12CCCCN1[C@H](c1ccc(-c3ccc(F)cc3)c(OC)c1)[C@@H]1C(=O)N(C)C(=O)[C@@H]12 | nt | -24.8 | -1.4 | 2.2% | -0.4 | -29.6 | -10.1
Cc1csc(N(C)C(=O)CSc2nnc(COc3ccccc3C)o2)n1 | -2.4% | 2.9 | -1.1 | -5.1%[38.3 µM] | -1.0 | ? | 2.0
O=C1NC(=S)S/C1=C/c1ccc(Oc2cnccn2)cc1 | 9.9% | -10.5 | 0.1 | -0.9% | -2.6 | 9.8 | 4.0
CCN1CCN(C(=O)NCc2ccccc2)CC1 | -9.2% | -3.1 | 11.6 | 0.2% | 0.5 | 4.7 | 4.3
COc1ccc(C)cc1NC(=O)C(OC(=O)c1cnccn1)c1ccccc1 (stereo unspecified) | nt | -0.1 | 3.0 | 4.2% | -6.8 | -11.7 | 1.3
COc1ccc(C2NC(=O)NC(C)=C2C(=O)OC2CCC(C)CC2)cc1 (stereo unspecified) | 16.7% | 3.4 | nt | 0.4% | 0.4 | -3.9 | -2.9
COC(=O)C1=C(C)N(Cc2ccccc2)C(=NCc2ccccc2)N[C@H]1c1ccccc1 | -6.4% | -16.0 | -6.3 | -1.3% | 0.7 | -6.9 | 2.7
COc1ccc(N2CCN(C(=O)CCC(=O)N3Cc4ccccc4Oc4ncccc43)CC2)cc1 | -0.2% | 6.6 | -22.0 | -0.7% | 2.3 | -9.3 | -4.2
CN1CCN(c2ccccc2NC(=O)c2ccc(OCc3ccccc3)cc2)CC1 | -3.4% | -33.5 | -11.5 | -4.5% | -3.9 | -8.0 | -7.5
CCOc1ccc(CC(C(N)=O)C(N)=O)cc1CN(C)C | 7.7% | -3.5 | -2.2 | -3.0% | -0.4 | -3.9 | 9.4
CC1CCCCC12NC(=S)N(c1ccccc1)N2 (stereo unspecified) | 17.8µM* | -8.9 | 8.5 | 1.9% | -1.4 | nt | 3.6
Cc1cccc(NS(=O)(=O)c2ccc([N+](=O)[O-])cc2)n1 | 6.1% | -0.1 | -0.7 | -0.8% | ? | 16.0 | 3.4
Cc1ccc(NC(=S)/N=C(\N)Nc2nc(C)c3ccccc3n2)cc1C | 15.1% | 0.8 | -26.8 | -0.4% | -1.1 | 3.0 | ?
COc1ccc(NC(=O)CSc2nncc(=O)n2N)cc1OC | 9.3% | 3.5 | -8.3 | -0.2% | -1.5 | 3.9 | -8.7
O=C(CN1CCN(c2ccccc2F)CC1)Nc1nnc(C(F)(F)F)s1 | -14.8% | 3.5 | nt | 0.3% | -1.1 | -8.2 | -1.8

Assay outcomes (PubChem)
